From PubChem BioAssay
VACV mCherry inh = qHTS for Stage-Specific Inhibitors of Vaccinia Orthopoxvirus: mCherry Reporter Primary qHTS; Vaccinia virus mCherry reporter infection, fluorescence; about a quarter of the inactives have no number; Potency, µM (doses to about 36.5 µM), without a hit: top-dose activity change, negative = inhibition, actives largely listed as inhibitors; 310,000 compounds, 0.63% hits; AID 720579, 2013; active = well fitted inhibition curve with a large enough effect; inconclusive = small, poorly fitted or top-dose-only effect; inactive = no such curve, though single readings can be large or run the other way; tested in A549 cells; also: nearly all actives have a fitted effect of over 35% in size; inactives centre near -10
VACV Venus inh = qHTS for Stage-Specific Inhibitors of Vaccinia Orthopoxvirus: Venus Reporter Primary qHTS. Vaccinia virus Venus reporter expression, fluorescence. Potency, µM (series often up to 36.5 µM), without a hit: top-dose activity change, negative = inhibition, hits mostly inhibitors. 330,000 compounds, 0.46% hits; active means well fitted inhibition curve with a large enough effect; inconclusive means small, poorly fitted or top-dose-only effect; inactive means no such curve, though single readings can be large or run the other way; tested in A549 cells; also: nearly all actives have a fitted effect of over 30% in size; inactives centre near -10
* marks the source's active call; other numbers are inactive results; i = inactive; u = inconclusive; x = not tested or not shown; & = joins results of further samples; [ ] = remark or other dose. % is scaled to controls: 0 for no effect and ±100 for the full control effect; potency is read from the fitted curve at half-maximal effect.

SMILES	VACV mCherry inh	VACV Venus inh
CC(C)N1CC(C(=O)Nc2ccccc2)CC1=O (stereo not given)	x	-16%
Nc1ccn(CCCNC2CCN(Cc3ccccc3)CC2)c(=O)n1	i	-5%
O=C(COc1cccc(Oc2ccccc2)c1)Nc1ccc(SC(F)F)cc1	-12%	-23%
CCC(=O)N1CCc2cc(S(=O)(=O)CCC(=O)NCc3ccc4c(c3)OCO4)ccc21	-11%	-22%
C[C@H](NC(N)=O)C(=O)Nc1ccc(OCc2ccccc2)cc1	-7%	1%
CC(C)NC(=O)CCCOc1ccc(Cl)cc1Cl	-14%	-9%
CCCCn1c(SCc2nc(N)nc(Nc3ccccc3C)n2)nc2ccccc2c1=O	x	u
Cc1ccc2sc(NC(=O)CN3C(=O)c4ccccc4C3=O)nc2c1C	-29%	-11%
CSCCC(C(=O)Nc1c(C)cccc1C)n1c(-c2ccc(C(F)(F)F)cc2)nc2ccccc21 (stereo not given)	-12%	0%
Cc1ccc(C2=N/C(=C\c3cccs3)C(=O)N2Nc2ccccc2)cc1	x	-20%
Fc1ccc2cnc(-c3ccccc3)c(-c3cc(C(F)(F)F)cc(C(F)(F)F)c3)c2c1	-4%	-28%
COC(=O)c1cc(Br)ccc1NC(=O)Nc1ccccc1	-12%	-4%
CNC(=S)Nc1ccc(Cc2ccncc2)cc1	-16%	0%
COc1ccc(-c2onc(C)c2-c2cscn2)c(O)c1	-6%	-16%
Cc1cc(C)c(NC(=O)CN2CCN3CCCC3C2)c(C)c1 (stereo not given)	i	-15%
Cc1ccc(N2CCN(C(=O)c3cc4cc5ccc(C)cc5nc4s3)CC2C)cc1 (stereo not given)	-4%	-11%
Cc1ccc(-c2nn(C)c(=O)c3ccccc23)cc1S(=O)(=O)NCCCN(C)C	-3%	-9%
O=C(O)c1cccnc1Sc1ccc(Br)cc1	-16%	-1%
COc1ccc(-c2ccc(NS(=O)(=O)c3ccc(NC(C)=O)cc3)cc2)nn1	-22%	-14%
O=C1NC(Cc2ccccc2)c2nc3cc(Cl)ccc3c(=O)n2-c2ncccc21 (stereo not given)	-4%	u
Cc1ccc(C)c(CN2C(=O)c3ccccc3S(=O)c3ccc(C(=O)N(C)Cc4ccccc4)cc32)c1 (stereo not given)	-13%	-5%
CC(C)NS(=O)(=O)c1ccc(OCC(=O)N2CCN(c3cccc(Cl)c3)CC2)cc1	-12%	-9%
CN(C(=O)C1Cc2c(-c3ccc(Cl)cc3)ccnc2O1)c1ccccc1 (stereo not given)	i	-14%
Cc1ccc(S(=O)(=O)c2nnn3c2nc(N2CCN(c4cccc(C)c4C)CC2)c2ccccc23)cc1C	i	-14%
Cc1ccc(C)c(N2CCN(c3nc4c(S(=O)(=O)c5ccccc5)nnn4c4ccc(Cl)cc34)CC2)c1	-5%	-4%

3 successive entries already listed:
SMILES	VACV mCherry inh	VACV Venus inh
CN(C(=O)C1Cc2c(-c3ccc(Cl)cc3)ccnc2O1)c1ccccc1 (stereo not given)	i	-14%
Cc1ccc(S(=O)(=O)c2nnn3c2nc(N2CCN(c4cccc(C)c4C)CC2)c2ccccc23)cc1C	i	-14%
Cc1ccc(C)c(N2CCN(c3nc4c(S(=O)(=O)c5ccccc5)nnn4c4ccc(Cl)cc34)CC2)c1	-5%	-4%

(further entries)
SMILES	VACV mCherry inh	VACV Venus inh
Cc1cccc2[nH]c(SCC(=O)O)nc12	i	-18%
CC(=O)c1cccc(NC(=O)c2cc(C)no2)c1	-21%	-9%
O=C(Nc1ccccc1)OCCCCOC(=O)Nc1ccccc1	-20%	-12%
Cc1cc(C)cc(OCC(=O)NNC(=S)NC(=O)C2CC2)c1	u	-8%
COc1cc(/C=C/c2cc[n+](C)cc2)ccc1OCC(=O)Nc1ccc(Cl)c(Cl)c1	i	-14%
c1ccc(C2(c3ccccc3)OCC(Cn3cncn3)O2)cc1 (stereo not given)	-15%	-2%
O=C(COc1ccc(Cl)cc1Cl)NCc1ccco1	-9%	-5%
COC1=CC(=O)OC(c2cccc(OC)c2)C1 (stereo not given)	0%	7%
O=C(c1cnn2c(C(F)F)cc(C3CC3)nc12)N1CCc2ccccc2C1	x	-24%
C=CCn1c(N)c(-c2nc3ccccc3n2C)sc1=S	i	-2%
S=c1[nH]nc(Cc2ccc(Cl)cc2)n1-c1ccc2c(c1)OCCO2	i	-24%
Cc1cc(OCC(=O)NCCCN(C)C)cc(C)c1Br	x	-13%
Cc1ccc(OCC(=O)Nc2cccc(C)n2)c(C)c1	-12%	-8%
Cc1ccc(NC(=O)c2sc3nc(CCl)[nH]c(=O)c3c2C)c(C)c1	-2%	-5%
O=[N+]([O-])c1ccc(O)c(/C=N/NC(=S)Nc2ccc(Cl)cc2Cl)c1	u	-13%
Cc1c(C(=O)OCC(=O)NC2CC2)oc2ccc(Br)cc12	i	-1%
O=C(Nc1ccc([N+](=O)[O-])cn1)c1ccc(Br)o1	i	-19%
O=C(NCC(c1ccc(F)cc1)N1CCOCC1)c1c(F)cccc1F (stereo not given)	i	24%
COc1ccc(C(=O)N[C@H](C(=O)OCn2nnc3ccccc3c2=O)C(C)C)cc1	i	-8%
Cc1ccc(S(=O)(=O)/N=C/c2ccco2)cc1	-9%	13%
CCC1CCc2c(sc(NC(=O)c3ccoc3C)c2C(N)=O)C1 (stereo not given)	u	u
O=C(NCCCl)NNc1c(Cl)cc(Cl)cc1Cl	-15%	-13%
Cc1cc(C)n(-c2nc(NCc3cccnc3)c3c4c(sc3n2)COC(C)(C)C4)n1	u	u
COc1ccc(C(CNC(=O)c2cc(F)c(F)c(F)c2F)N2CCOCC2)cc1 (stereo not given)	-9%	0%
C[C@H](CO)N1C[C@H](C)[C@@H](CN(C)C)Oc2c(NS(=O)(=O)c3cccs3)cccc2C1=O	-14%	2%
Continuation:
SMILES	VACV mCherry inh	VACV Venus inh
Cc1ccc(S(=O)(=O)Nc2ccc(C(=O)NCc3cccnc3)cc2)cc1	-13%	-6%
CCCCN(C(=O)c1ccccc1Br)C1CCS(=O)(=O)C1 (stereo not given)	i	-16%
CNC(=S)NCCN1CCOCC1	-4%	-11%
CC(=O)c1ccc(NC(=O)C(Cc2ccccc2)NS(=O)(=O)c2ccc3c(c2)CCC(=O)N3)cc1 (stereo not given)	7%	-1%
COc1ccc(N(CC(=O)Nc2cccnc2)S(C)(=O)=O)cc1	-1%	4%
CC(NC(=O)C1CCN(C(=O)c2ccc(F)cc2)CC1)c1ccc(S(N)(=O)=O)cc1 (stereo not given)	i	-16%
NC(=O)C1CCN(C(=O)C2CC(=O)N(c3ccc(F)cc3)C2)CC1 (stereo not given)	-10%	-13%
O=C(c1ccccc1)c1ccccc1N=Cc1c(O)[nH]c(=O)[nH]c1=O	i	-6%
CN(C)c1ccc(SC#N)cc1	-14%	-5%
O=C1Nc2cc(C(=O)N3CCN(c4ccc(F)cc4)CC3)ccc2NC1CSCc1cccc(F)c1 (stereo not given)	i	53%[activator]
COc1ccc2cc(C(C)C(=O)N3CCC(C(N)=O)CC3)ccc2c1 (stereo not given)	-9%	-4%
O=C(NC1(O)C(=O)c2ccccc2C1=O)c1c(Cl)cccc1Cl	i[7.34 µM]	-13%[7.34 µM]
CNC(=O)c1ccsc1NC(=O)C1CCCN1S(=O)(=O)c1cccs1 (stereo not given)	-8%	-4%
COCc1cc(C)nc(SCC[N+](C)(C)CC(=O)Nc2cccc(C(F)(F)F)c2)c1C#N	i	-6%
O=C(Oc1ccc(Br)cc1)c1n[nH]c(=O)c2ccccc12	-9%	-7%
NC(=S)N=Nc1c(O)cc(O)c2[nH]c(=O)ccc12	-4%	-2%
Cc1ccc(C(=O)OCN2C(=O)c3ccccc3C2=O)cc1S(=O)(=O)N1CCOCC1	-12%	-12%
CCC(C)(C)NC(=O)C(c1ccccc1F)N(Cc1ccco1)C(=O)Cn1nnc2ccccc21 (stereo not given)	x	-14%
Nc1ccc(S(=O)(=O)Nc2cnc3ccccc3n2)cc1	-9%&-5%	-18%&-3%
COc1ccc(C(=O)Nc2nnc(S(=O)(=O)Cc3ccc(F)cc3)s2)cc1	0%[7.34 µM]	-17%[7.34 µM]
Cc1ccc(S(=O)(=O)NCc2ccncc2)cc1C(=O)NCC(C)C	i	-13%
Cc1ccc(S(=O)(=O)c2nnn3c2nc(Nc2cccc(C)c2)c2ccccc23)cc1	i	-16%
CCn1c(=O)c(C(C)=O)c(O)c2ccccc21	6%	8%
CC(C#N)Sc1ccc(S(=O)(=O)N2CCCC2)cn1 (stereo not given)	i	-8%
COC(=O)c1cc(Br)c(=O)n(Cc2ccco2)c1	x	-3%

Record cards, as listed above:
`COc1ccc(-c2onc(C)c2-c2cscn2)c(O)c1` is listed as VACV mCherry inh = -6%; VACV Venus inh = -16%
`COCc1cc(C)nc(SCC[N+](C)(C)CC(=O)Nc2cccc(C(F)(F)F)c2)c1C#N` is listed as VACV mCherry inh = i; VACV Venus inh = -6%
`COc1ccc(C(CNC(=O)c2cc(F)c(F)c(F)c2F)N2CCOCC2)cc1` (stereo not given) is listed as VACV mCherry inh = -9%; VACV Venus inh = 0%

Four entries picked at random from the list so far, as already listed:
SMILES	VACV mCherry inh	VACV Venus inh
Cc1ccc(C)c(CN2C(=O)c3ccccc3S(=O)c3ccc(C(=O)N(C)Cc4ccccc4)cc32)c1 (stereo not given)	-13%	-5%
CC(C#N)Sc1ccc(S(=O)(=O)N2CCCC2)cn1 (stereo not given)	i	-8%
S=c1[nH]nc(Cc2ccc(Cl)cc2)n1-c1ccc2c(c1)OCCO2	i	-24%
Cc1ccc(S(=O)(=O)c2nnn3c2nc(Nc2cccc(C)c2)c2ccccc23)cc1	i	-16%

Next section.
SMILES	VACV mCherry inh	VACV Venus inh
C=CCSc1nc(N)c(C(=O)Nc2ccccc2OC)cc1C(=O)Nc1ccccc1	-10%	1%
C[C@@H]1CC2=C(C(=O)OC(C)(C)O2)[C@H](c2ccc(F)cc2)O1	-13%	-3%
COc1ccccc1C(=O)Nc1onc2c1CCCC2	-12%	-13%
CN(C)CCN(Cc1cccs1)c1ccccn1	-12%	-16%&-6%
N#CC1C(=O)c2ccccc2C1c1ccccc1 (stereo not given)	i	-14%
CC(CNC(=O)c1ccc(N)cc1)NC(=O)c1ccc(N)cc1 (stereo not given)	1%	-4%
C/C(CC1(O)C(=O)N(Cc2ccccc2)c2ccccc21)=N\O (stereo not given)	3%	6%
O=C(CN1CCN(c2ncccn2)CC1)Nc1ccccc1-n1cccc1	i	-20%
O=c1n(Cc2ccccc2)c2cc(Cl)cnc2n1Cc1ccccc1	-10%	-29%
CN(C(=O)COC(=O)c1sc2ccccc2c1Cl)C1CCCCC1	-21%	-22%
CC(=O)Nc1ccc(S(=O)(=O)NCC(CCC(=O)O)C(F)(F)F)cc1 (stereo not given)	-6%	-3%
O=C1NC(Cc2ccccc2)c2nc3cc(F)ccc3c(=O)n2-c2ncccc21 (stereo not given)	-17%	-12%
COC(=O)c1cn(NC(=O)Cc2cccc(C(F)(F)F)c2)c(=O)c2ccccc12	-4%	-1%
CC(=O)c1cccc(N(C(=O)CS(=O)CC(=O)Nc2ccc(F)cc2)C(C(=O)NC2CCCCC2)c2ccc(C)o2)c1 (stereo not given)	i	-15%
COc1ccc(C(=O)/C=C/c2cc(C(=O)O)cc3c2OCOC3)c(O)c1	-6%	7%
Cc1cccc(NC(=O)CCc2c(C)nc3c(c(C)nn3C(C)(C)C)c2C)c1C	u	-29%
CCN(CC)S(=O)(=O)c1ccc(N=Nc2c(N)[nH]c(=O)[nH]c2=O)cc1	i	-13%
Cn1c(=O)n(C)c2cc(NC(=O)c3ccccc3)ccc21	-9%	-5%
CC(C)N(C)c1ncnc2c1ncn2[C@H]1CN(Cc2ccc(F)cc2)C[C@@H](CO)O1	-8%	6%
O=C(C1CC(Cl)CN1S(=O)(=O)c1ccc(Cl)cc1)N1CCOCC1 (stereo not given)	11%	3%
CCN1CCN(C(=O)c2ccc(CS(=O)(=O)Cc3ccccc3Cl)o2)CC1	-15%	-11%
Cc1ccc(S(=O)(=O)NCc2ccc3[nH]c(C)cc3c2)cc1	0%	-2%
COc1cc(C(CC(=O)Nc2ccc(C)cn2)N2Cc3ccccc3C2=O)cc(OC)c1OC (stereo not given)	i	-9%
COc1ccc(C(C(=O)NC(C)(C)C)N(CCO)C(=O)CCC(=O)Nc2cc(C)on2)cc1 (stereo not given)	-6%	-1%
O=c1n(Cc2cccc(F)c2)c2ccccc2c2nc(-c3ccccc3)nn12	-21%	-20%
(continued)
SMILES	VACV mCherry inh	VACV Venus inh
CC(C)N(CCNC(=O)c1cn(C)c2ccc(S(=O)(=O)N(C)C)cc2c1=O)Cc1ccccc1	-6%	-2%
CCOc1ccc(-c2nnc(-c3ccco3)o2)cc1OCC	-11%	-11%
OC(c1ccc(F)c(F)c1)c1nc(-c2ccc3ccccc3c2)cs1 (stereo not given)	-3%	-14%
CCN1C(=O)C2C(c3ccc(O)c(OC)c3)NC(C)(C(=O)OC)C2C1=O (stereo not given)	-11%	-6%
Cc1nc(-c2ccc(Cl)cc2)sc1CCNC(=O)c1ccco1	-6%	-2%
CCCN(CC(=O)Nc1cc(C)on1)CC(=O)Nc1ccc(F)c(F)c1F	-6%	-10%
COc1ccccc1OCC(O)CNCc1ccc2c(c1)OCO2 (stereo not given)	-15%	-9%
Fc1ccc(CN2CCN(C(=S)NCCc3ccccc3)CC2)c(Cl)c1	u	-21%
CCc1ccc(-n2nc(CO)c(C(=O)NCc3ccccc3Cl)n2)cc1	1%	-6%
Cc1ccc(-n2nc3cc(C)c(NC(=O)c4ccc(-c5ccccc5)o4)cc3n2)cc1	-5%	-4%
NC1(C(=O)O)C[C@@H](C(=O)O)[C@H](C(=O)O)C1	i	-9%

Random draw from the library; overall some 0.86% were active at least once.
